# VACV E9 pol inh: vaccinia E9 polymerase processive synthesis inhibition | hit rate 0.94% among 46,000 | AID 493162 | in vitro processive DNA synthesis, absorbance read-out; stronger effect = lower value; some inactives read as strong as hits | normalized absorbance, % (no concentration beside the values);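 active means replicate mean up to 90% and picked by the depositor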;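 further: 100% = median of the test wells of a plate; 100 nL library stock went into each well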
# Active calls of the source: *; & = joins results of further samples. An excerpt; count on the stated rates, not on these rows.
SMILES,VACV E9 pol inh
COc1ccc(-c2cc(C(=O)NC(C)(C)CO)on2)cc1OC,88
Cc1cc(Sc2nnnn2-c2ccccc2)nc2ccccc12,101
O=C1OC(COc2ccc(Br)cc2)CN1c1ccccc1 (centres undefined),99
COc1ccc(N2C(=O)Cc3ccccc3C2=O)cc1,101
O=C(Cn1nc(-c2ccccc2)c2ccccc2c1=O)Nc1cccc(C(F)(F)F)c1,100
O=C(CSc1ncn[nH]1)c1cccs1,100
O=C(O)CC(c1ccc(O)cc1)N1Cc2ccccc2C1=O (centres undefined),105
Cc1ccc(C(=O)Nc2nnc(SCC(=O)N3CCCc4ccccc43)s2)cc1,98
CCOC(=O)Cn1nc(C(F)(F)F)cc1C,100
Cc1ccc(-c2cn3nc(N4CCCC(C(=O)O)C4)sc3n2)cc1 (centres undefined),104
CCCCC/C=C\C/C=C\C/C=C\CCCCCCC(=O)NCCO,100
O=C(O)CC(C(=O)Nc1cc(C(F)(F)F)cc(C(F)(F)F)c1)C1=CCCCC1 (centres undefined),104
CCOC(=O)c1c(C)oc2c1c(C=NCCc1c[nH]c3ccccc13)c(O)c1ccccc12,100
CC(=O)Nc1cccc2nc(C)sc12,95
OCCOc1ccc(Br)cc1OCCO,96
COc1ccc(N=Cc2cc(C=Nc3ccc(OC)cc3)c(S(=O)(=O)C(C)(C)C)s2)cc1,100
O=C(OCc1ccccc1)N1CN(Cc2ccccc2)Cc2c1oc1ccccc1c2=O,101
NNc1nc2ccccc2s1,78*
CC1(C)S[C@@H]2[C@H](NC(=O)[C@H](N)c3ccccc3)C(=O)N2[C@H]1C(=O)O,100
O=S(=O)(NCc1ccccc1)c1cc(Cl)ccc1Cl,97
O=C(Nc1cccnc1)c1ccc(COCC(F)(F)F)cc1,100
O=C(OCC(=O)N1CCCC1)c1ccc(Cl)c(Cl)c1,98
Cc1ccc2c(c1)c(C)c(C)n2CC(O)Cn1nc(C)cc1C (centres undefined),92
O=C(CSc1nc2ccccc2c2nc3ccccc3n12)c1ccccc1,101
COC(=O)c1ccc(C)c(N(CCO)CCO)c1,107
COc1cccc(-n2cc(C(=O)Nc3cccnc3)c3ccccc3c2=O)c1,109
CC(=O)Nc1ccc(S(=O)(=O)n2cnc3ccccc32)cc1,101
COc1ccc(S(=O)(=O)CCC(=O)Nc2ccc(OC(F)(F)F)cc2)cc1,104
Cc1nnc(NC(=O)CSc2c[nH]c3ccccc23)s1,87
O=C(O)c1cc(Cl)nc(Cl)c1,98
CC(=O)OC1=CSc2ccc(Br)c3cccc1c23,99
FC(F)(F)c1cccc(/C=N/n2cnnc2SCc2ccccc2)c1,100
CCC(=O)NC1CC(C(C)(C)NC(=O)CC)CC=C1C (centres undefined),96
CC(C)CNP(=O)(OC1CC(C)CCC1C(C)C)c1ccccc1 (centres undefined),100
CCCc1nc2c(sc3nc(COC)cc(C)c32)c2nc3ccccc3n12,100
COc1cccc2cc(C(=O)CBr)c(=O)oc12,105
COc1ccc(-c2nc3cc(F)c(Cl)cc3nc2-c2ccc(OC)cc2)cc1,101
COC(=O)c1ccccc1Oc1ccc(NC(=O)c2ccccc2)cc1,88
CC1(C)Cc2c(c(=O)n(-c3ccccc3)c3ncnc(N)c23)CO1,100
Cc1ccc(NS(=O)(=O)c2cn(C)cn2)cc1,108
CCOc1ccc2nc(S/C=C/C(=O)c3ccc(Cl)cc3)sc2c1,106
COc1ccccc1N1C(=O)C=CC1=O,82
Cc1oc(-c2cccc(Cl)c2)nc1CN1CCC(C(=O)NCc2ccc(Cl)cc2)CC1,95
COc1ccc2oc(=O)cc(CN(C)Cc3ccco3)c2c1,103
COc1cc(SC)ccc1C(=O)N(C)Cc1ccccc1,97
Cc1ccc(NC(=O)c2cccn(OCc3ccc(F)cc3)c2=O)cc1,100
Cc1ccc(-c2nc3ccccc3c(=O)o2)cc1,95
CC(C)(C)c1ccccc1OCC(O)CN1CCN(Cc2ccc3c(c2)OCO3)CC1 (centres undefined),100
O=C(NCCOc1ccccc1)C1CCCCC1,104
N#CC1=C(SCc2ccccc2)SC(c2ccccc2O)NC1=O (centres undefined),50*
O=C1c2cccc3cccc(c23)N1S(=O)(=O)c1ccc(Br)cc1,96
CCOC(=O)C1CCCN(C(=O)c2ccc(F)cc2)C1 (centres undefined),101
O=C1CSC(/C=C/c2ccccc2)N1c1cc(Cl)ccc1Cl (centres undefined),100
C=CCNc1nc(N(c2ccccc2)c2ccccc2)nc(-n2ccnc2)n1,100
CC1(C)CC(N2C(=O)OC(C)(C3CC4C=CC3C4)C2(C)O)CC(C)(C)N1 (centres undefined),100
CSc1sc(C(=O)O)c2c1S(=O)(=O)N(C)c1ccccc1-2,101
N#C/C(=C1\CCCN1)c1nc(-c2ccccc2)cs1,100
O=C(COC(=O)c1cccnc1Cl)Nc1ccccc1C(F)(F)F,92
CC(=O)N1C(C(=O)NCc2ccc(C)cc2)CSC12CCN(C)CC2 (centres undefined),99
CC1C(=O)CCC2C(C)(COc3ccc4ccc(=O)oc4c3)CCCC12C (centres undefined),100
# Continuation:
SMILES,VACV E9 pol inh
COc1ccc2nc(NC(=O)CNS(=O)(=O)c3cccs3)sc2c1,106
O=C(NCc1sccc1COc1ccc(Cl)cc1)Nc1ccccc1F,100
CCOC(=O)c1cc(C)n(-c2ccc(C(=O)NC3CCCCCC3)cc2)c1C,89
CCCC(=O)N1CCC(c2c[nH]c3ccccc23)(c2c[nH]c3ccccc23)CC1,96
CC(C)(C)N1NC2(CCCCC2)NC1=S,89
CC(C)c1ccc(N=Cc2cccs2)cc1,84
CC(C)(C)C1(C)OC(=O)C(=Cc2ccccc2Cl)C(=O)O1 (centres undefined),100
CC1(C)CC(NCc2cccs2)CC(C)(C)N1,102
Cc1nnc(NCCc2ccccc2)n(N)c1=O,100
COc1ccc(-c2cnc[nH]2)cc1,84
O=C(/C=C/c1cccs1)Nc1ccc(Nc2ccccc2)cc1,102
Cc1cc(N=Cc2ccc(N3CCOCC3)cc2)ccc1Br,100
COC(=O)c1cn(C)c2ccc(S(=O)(=O)N(C)C3CCCCC3)cc2c1=O,100
CCN1CSC(=S)N(CC)C1,98
CC(C)c1cccc(C(C)C)c1NC(=O)COC(=O)/C=C/c1ccco1,85
CCCCn1c(COC)nc2ccccc21,95
C/[N+]([O-])=C\C1C(=O)CC(C)(C)CC1=O,101
CCCCC(C(=O)N1CCCCC1)N1C(=O)c2ccccc2C1=O (centres undefined),100
O=C(CCCN1C(=O)/C(=C\c2cccs2)SC1=S)Nc1ccc(O)cc1,100
Clc1ccc(CSCc2ccc(-c3csnn3)cc2)cc1,101

# 14 records drawn at random from those above:
SMILES,VACV E9 pol inh
CCCCn1c(COC)nc2ccccc21,95
CC1(C)CC(NCc2cccs2)CC(C)(C)N1,102
Cc1nnc(NCCc2ccccc2)n(N)c1=O,100
C/[N+]([O-])=C\C1C(=O)CC(C)(C)CC1=O,101
Cc1cc(N=Cc2ccc(N3CCOCC3)cc2)ccc1Br,100
CCN1CSC(=S)N(CC)C1,98
CC(C)(C)N1NC2(CCCCC2)NC1=S,89
Clc1ccc(CSCc2ccc(-c3csnn3)cc2)cc1,101
CCCC(=O)N1CCC(c2c[nH]c3ccccc23)(c2c[nH]c3ccccc23)CC1,96
CCCCC(C(=O)N1CCCCC1)N1C(=O)c2ccccc2C1=O (centres undefined),100
COc1ccc(-c2cnc[nH]2)cc1,84
O=C(NCc1sccc1COc1ccc(Cl)cc1)Nc1ccccc1F,100
CCOC(=O)c1cc(C)n(-c2ccc(C(=O)NC3CCCCCC3)cc2)c1C,89
CC(C)c1cccc(C(C)C)c1NC(=O)COC(=O)/C=C/c1ccco1,85

# The list goes on.
SMILES,VACV E9 pol inh
Cc1ccc(S(=O)(=O)NCc2nc3ccccc3[nH]2)cc1,102
N#CC(c1ccc2c(c1)OCO2)N(Cc1ccccc1)C(=O)c1sc2ccccc2c1Cl (centres undefined),92
CCCNC(=O)c1cc(S(=O)(=O)N2CCc3ccccc32)cn1C,99
Fc1ccccc1Cn1cnc2ccccc21,100
CCN(CC)c1ncnc2c1cnn2-c1ccccc1,92
CC(C)n1c2ccccc2c2nc3ccccc3nc21,98
Cc1cc2ccc(=O)oc2cc1OC[C@@H](O)C(C)(C)O,99
Cc1cc(C(C)(C)C)cc(C)c1CC1=NCCN1,95
CCC1(C)OC(=O)N2CCc3ccccc3C21C (centres undefined),100
Cc1noc(C(=O)N(C)c2ccccc2)c1Cl,95
COc1ccc(/C=C2N=C(/C=C/c3ccc(C)cc3)OC\2=O)cc1OC(C)=O,100
COC(=O)c1ccc(/N=C/N(C)C)o1,101
CCCCC1CCC(C(=O)ON2C(=O)c3cccc4cccc(c34)C2=O)CC1 (centres undefined),100
COc1ccc(-n2nc(C#N)c(N)c(C#N)c2=N)cc1,99
CN(C)c1ccc(/C=C/C=N/n2cnnc2)cc1,103
COc1ccccc1NC(=O)c1ccc(S(=O)(=O)N2CCCC2)cc1,98
O=C(CC(NS(=O)(=O)c1ccc(Br)cc1)c1ccco1)NC1CC1 (centres undefined),94
Cc1noc2ncnc(SCc3ccc(C(F)(F)F)cc3)c12,101
COc1ccc(-c2noc(CN3C(=O)c4ccccc4C3=O)n2)cc1,110
NC(N)=Nc1nc2ccccc2s1,98
O=S(=O)(Nc1ccccn1)c1ccccc1,100
CN(C)C(=O)/C=C\c1cn(-c2ccccc2)nc1-c1ccc2c(c1)OCCO2,106
CC(C)CC(=O)Nc1nc(-c2ccc(F)cc2)cs1,116
COc1ccc(CC(=O)n2nc(-c3ccc(F)cc3)cc2SC)cc1OC,105
COC(=O)c1ccc(-c2cnco2)cc1,101
CCn1cc2c(n1)-c1c(oc(C(=O)N3CCc4ccccc4C3)c1C)CC2,92
CC1CCCCC1N(C)C1CCN(CCCNC(=O)/C=C/c2cccc(C(F)(F)F)c2)CC1 (centres undefined),104
CCOc1cccc(=O)c2c(C)n(-c3ccc(OC)cc3)c(C)c12,98
O=C(/C=C/c1ccco1)Nc1cccc2cccnc12,100
O=C1CCCC2=C1C(c1ccccc1Cl)C1=C(CCCC1=O)O2,107
CC1CCCN(C(=O)COc2ccc(-c3ccccc3)cc2)C1 (centres undefined),97
COc1cccc(NC2=NC3(CCCC3)N=C(N)N2)c1,100
CC(=O)Nc1ccc2c(c1)sc(=NC(=O)c1ccc(Br)s1)n2C,94
O=C1Nc2ccccc2/C1=C/C(=O)c1ccccc1,100
N#CC(c1cccnc1)N1CCOCC1 (centres undefined),95
C=CCSc1nnc(-c2c[nH]c3ccccc23)n1C,94
COc1ccc(CCCc2nnc(SCC(=O)NN)o2)cc1,100
CCC(C)Nc1ncnc2c1oc1ccccc12 (centres undefined),99
Cc1ccc(-c2nc3cnccn3c2NC2CCCCC2)o1,105
CCc1cccc(Nc2ncnc3c2nc2n3CCCCC2)c1,96
COCc1cc(C)nc(SCC(=O)N2CCCCC2)c1C#N,100
CC(C)(C)C(=O)NCc1cn2ccsc2n1,104
O=C(O)CCS(=O)(=O)c1ccc2ccccc2c1,99
O=C1CC(Sc2ccccc2C(=O)O)C(=O)N1 (centres undefined),101
CC(C)(C)C(=O)/C=C1\NC(=O)CS1,102
Cc1c(Cl)cccc1NC(=S)N1CCCN(c2nc3ccc(Cl)cc3s2)CC1,99
CC(=O)N1c2ccc(S(=O)(=O)N3CCCCC3)cc2CC1C (centres undefined),102
O=C(c1ccc(-c2ccccc2Cl)o1)N1CCOCC1,101
COc1ccc(-n2c(SCC(=O)NC(C)(C)C)nc3ccccc32)cc1,92
COc1ccc2[nH]cc(CCN3C(=O)c4ccccc4C3=O)c2c1,104
CC(C)(C)c1csc(Cc2ccc(-c3csnn3)cc2)n1,100
CC(COc1ccccc1)N(CCCl)Cc1ccccc1 (centres undefined),100&99
CNc1ncc(C(=O)c2ccccc2)s1,74
CCCNC(=O)c1cc(=O)n(Cc2ccc(Cl)cc2)c2ccccc12,103
COc1ccc(/C=C/C(=O)Nc2ccc3nc(N4CCCCC4)cc(C)c3c2)cc1,101
O=C(CNc1ccc(Cl)cc1)NCC1CCCO1 (centres undefined),100
CC(CCc1ccccc1)NC(=O)COc1ncnc2ccccc12 (centres undefined),100
CSCCC(NC=O)C(=O)NC(Cc1ccccc1)C(=O)O (centres undefined),96
COc1ccc2c(c1)sc(=NC(=O)CSCC(=O)N1CCCc3ccccc31)n2C,98
O=C(CCS(=O)(=O)c1cccc2nonc12)NCc1ccc(Cl)cc1,108

# Next part; it opens with the 3 that closed the last part.
SMILES,VACV E9 pol inh
CSCCC(NC=O)C(=O)NC(Cc1ccccc1)C(=O)O (centres undefined),96
COc1ccc2c(c1)sc(=NC(=O)CSCC(=O)N1CCCc3ccccc31)n2C,98
O=C(CCS(=O)(=O)c1cccc2nonc12)NCc1ccc(Cl)cc1,108
CC(C)=CCOc1cc(C)cc2oc(=O)cc(-c3ccccc3)c12,100
N#Cc1ccc(OCC(=O)NC2CCCCCC2)cc1,101
O=C1CC(Sc2ccc(Cl)cc2)C(=O)N1c1ccc(Br)cc1 (centres undefined),101
Nc1nncn1C(=O)c1ccccc1F,90
Cc1ccc(S(=O)(=O)c2cc(C)ccc2C)cc1,101
C(=NCC1CCCO1)c1cccnc1 (centres undefined),106
O=C(COc1cccc(F)c1)OCC(=O)c1cccc(Cl)c1,98
COC(=O)Cc1ccc2sc(-c3ccccc3)nc2c1,99
Cc1onc(-c2ccccc2Cl)c1-c1nc2ccc(I)cc2c(=O)o1,102
S=C(NC1CCCCC1)Sc1ccc(Cl)cc1,97
O=c1cc(/C=C/c2ccccc2)oc2ccccc12,99
CC(C)OC(=O)CSc1nc2ccccc2[nH]1,101
CCOC(=O)C[n+]1ccccc1C,99
N#CCCn1c(C2CCCCC2)nc2ccccc21,100
O=C1NN=CC(c2ccccc2)(c2c[nH]c3ccccc23)N1 (centres undefined),90
Clc1ccc(C2N(Cc3ccccc3)CCC3CCCCN32)cc1 (centres undefined),103

# High-throughput results as filed in PubChem.
